FGF22 binding – shifts melting point of recombinant human FGF22. calls only at 9.99 µM. 340,000 tested, 1.5% active. recombinant FGF22 thermal shift, SYPRO orange fluorescence; percent of sucrose octasulfate shift, DMSO zero. AID 651658;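 active means melting point raised past a set limit in the mean and every replicate; three in four hits are not shown here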
Target sequence (Q9HCT0 whole entry, looked up): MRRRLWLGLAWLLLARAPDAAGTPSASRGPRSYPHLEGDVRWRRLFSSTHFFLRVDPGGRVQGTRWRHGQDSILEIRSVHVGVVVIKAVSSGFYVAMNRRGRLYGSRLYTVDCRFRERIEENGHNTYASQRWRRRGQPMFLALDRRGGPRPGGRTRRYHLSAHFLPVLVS
Calls only; i = inactive.

SMILES | FGF22 binding
COc1ccc(-c2cnc3c(c2)C(=O)N([C@@H](C)CO)C[C@@H](C)[C@@H](CN(C)C(=O)Cc2cccnc2)O3)cc1 | i
CCC(=O)N1[C@H](CO)[C@@H](c2ccccc2)[C@@H]1CN(C)C(=O)c1cccc(F)c1 | i
C[C@H](CO)N1C[C@H](C)[C@H](CN(C)C(=O)c2ccc(F)cc2)Oc2ncc(/C=C/c3ccccc3)cc2C1=O | i
C[C@H]1CN([C@@H](C)CO)C(=O)c2cc(NC(=O)c3ccncc3)ccc2O[C@@H]1CN(C)Cc1ccc(C(=O)O)cc1 | i
C[C@@H]1CN([C@@H](C)CO)C(=O)c2cc(NS(=O)(=O)c3ccc(F)cc3)ccc2O[C@@H](C)CCCCO[C@@H]1CN(C)C(=O)Nc1ccccc1 | i
COc1cccc(-c2ccc3c(c2)O[C@@H](CN(C)C(=O)C2CCCCC2)[C@H](C)CN([C@@H](C)CO)S3(=O)=O)c1 | i
C[C@H]1CN([C@@H](C)CO)C(=O)c2cc(/C=C/c3ccccc3)cnc2O[C@H]1CN(C)C(=O)C1CCCCC1 | i
COc1ccccc1S(=O)(=O)N1CC[C@@H]2[C@H](CO)Nc3ccc(-c4ccc(F)cc4)cc3[C@@H]21 | i
COc1ccc(CN(C)C[C@H]2Oc3c(NS(=O)(=O)c4cccs4)cccc3C(=O)N([C@H](C)CO)C[C@@H]2C)cc1 | i
O=C(c1ccccn1)N1C[C@@H]2[C@H](c3ccccc31)[C@H](CO)N2C(=O)Nc1ccccc1F | i
COc1ccc(S(=O)(=O)Nc2ccc3c(c2)C(=O)N([C@H](C)CO)C[C@H](C)[C@@H](CN(C)Cc2ccccc2)OCCCC[C@@H](C)O3)cc1 | i
COc1ccc(-c2ccc3c(c2)[C@@H]2[C@@H](CCN2C(=O)CN2CCOCC2)[C@@H](CO)N3)cc1 | i
C[C@@H]1CN([C@@H](C)CO)S(=O)(=O)c2ccc(C#C[C@@H](C)O)cc2O[C@H]1CN(C)C(=O)Nc1ccccc1 | i
CCC(=O)N(C)C[C@H]1Oc2cc(-c3cccc(OC)c3)ccc2S(=O)(=O)N([C@@H](C)CO)C[C@@H]1C | i
C[C@H](NC(=O)C[C@H]1C[C@H]2c3cc(NC(=O)CC4CC4)ccc3O[C@H]2[C@@H](CO)O1)c1ccccc1 | i
C[C@H](CO)N1C[C@H](C)[C@H](CN(C)S(=O)(=O)c2ccc(F)cc2)Oc2ccc(N(C)C)cc2CC1=O | i
O=C(Cc1ccccc1)N[C@@H]1C=C[C@@H](CC(=O)N2CCOCC2)O[C@H]1CO | i
Cc1noc(C)c1NC(=O)Nc1ccc2c(c1)C(=O)N([C@@H](C)CO)C[C@H](C)[C@H](CN(C)C(=O)CCCN(C)C)OCCCC[C@H](C)O2 | i
CC=Cc1ccc2n(c1=O)C[C@@H]1[C@@H](CO)[C@H](C(=O)NCc3ccc4c(c3)OCO4)[C@H]2N1C(=O)COC (mixture of isomers) | i
Cc1noc(C)c1NC(=O)N(C)C[C@@H]1OCCCC[C@H](C)Oc2ccc(NC(=O)Nc3ccc(C(F)(F)F)cc3)cc2C(=O)N([C@@H](C)CO)C[C@@H]1C | i

Another view of two compounds above:
mol	FGF22 binding
COc1ccccc1S(=O)(=O)N1CC[C@@H]2[C@H](CO)Nc3ccc(-c4ccc(F)cc4)cc3[C@@H]21	i
COc1ccc(CN(C)C[C@H]2Oc3c(NS(=O)(=O)c4cccs4)cccc3C(=O)N([C@H](C)CO)C[C@@H]2C)cc1	i

New compounds follow.
SMILES | FGF22 binding
CC=Cc1ccc2n(c1=O)C[C@H]1[C@H](CO)[C@@H](C(=O)NCc3ccccc3Cl)N(S(C)(=O)=O)[C@@H]21 (mixture of isomers) | i
COc1ccc(C#Cc2ccc3c(c2)[C@@H]2[C@@H](CCN2S(=O)(=O)c2cccc(OC)c2)[C@H](CO)N3)cc1 | i
COc1ccc(NC(=O)N(C)C[C@H]2Oc3ccc(NS(=O)(=O)c4ccc(F)cc4)cc3C(=O)N([C@@H](C)CO)C[C@@H]2C)cc1 | i
COc1ccc2c3c(n(C)c2c1)[C@H](CO)N(S(=O)(=O)c1ccc(C)cc1)CC31CCN(Cc2cccnc2)CC1 | i
C[C@H](CO)N1C[C@H](C)[C@@H](CN(C)S(=O)(=O)c2cccc(F)c2)Oc2ncc(-c3cccc(F)c3)cc2C1=O | i
CCCC(=O)Nc1ccc2c(c1)C(=O)N(C)C[C@H](OC)[C@H](C)CN(C)[C@H](C)CO2 | i
COc1ccc2c3c(n(C)c2c1)[C@@H](CO)N(C(=O)C1CCCCC1)CC31CCN(C(=O)CN(C)C)CC1 | i
CCNC(=O)Nc1ccc2c(c1)C(=O)N(C)[C@@H]1CC[C@H](CC(=O)NCc3cccc(F)c3)O[C@@H]1CO2 | i
CCCNC(=O)C[C@H]1CC[C@@H]2[C@H](COC[C@H](O)CN2Cc2ccc(Cl)c(Cl)c2)O1 | i
O=C(Cc1ccncc1)NCC[C@@H]1CC[C@H](NC(=O)C2CCCCC2)[C@H](CO)O1 | i
CCCc1cn(CC[C@@H]2CC[C@@H](NC(=O)CCN3CCCCC3)[C@H](CO)O2)nn1 | i
C[C@H](CO)N1C[C@H](C)[C@@H](CN(C)C(=O)Nc2cccc3ccccc23)Oc2ccc(NS(=O)(=O)c3cn(C)cn3)cc2CC1=O | i
C[C@H]1CCCCO[C@@H](CN(C)C(=O)Nc2ccccc2)[C@@H](C)CN([C@@H](C)CO)C(=O)c2cc(NC(=O)C3CCCCC3)ccc2O1 | i
COc1ccc2c3c(n(C)c2c1)[C@@H](CO)N(Cc1cccc(F)c1)CC31CN(C(=O)Cc2ccccc2)C1 | i
COc1ccc2c3c(n(C)c2c1)[C@H](CO)N(Cc1nccs1)CC31CN(C(=O)CC2CC2)C1 | i
COc1ccc(S(=O)(=O)Nc2ccc3c(c2)CC(=O)N([C@@H](C)CO)C[C@@H](C)[C@@H](CN(C)C(=O)Nc2ccc4c(c2)OCO4)O3)cc1 | i
O=C(C[C@@H]1CC[C@@H]2[C@H](COC[C@H](O)CN2S(=O)(=O)c2cccc(Cl)c2)O1)N1CCCCC1 | i
C[C@@H]1CCCCO[C@@H](CN(C)Cc2ccc(C(F)(F)F)cc2)[C@@H](C)CN([C@H](C)CO)C(=O)c2cc(NC(=O)NC3CCCCC3)ccc2O1 | i
CC(C)CC#Cc1ccc([C@@H]2[C@H](CO)N3CCCCN(S(=O)(=O)Cc4ccccc4)C[C@@H]23)cc1 | i
COc1ccc(NC(=O)Nc2cccc3c2O[C@@H](CN(C)C(=O)Nc2ccc(OC)cc2)[C@@H](C)CN([C@@H](C)CO)C3=O)cc1 | i

Among those listed so far, 2 have a CF3 group:
SMILES | FGF22 binding
Cc1noc(C)c1NC(=O)N(C)C[C@@H]1OCCCC[C@H](C)Oc2ccc(NC(=O)Nc3ccc(C(F)(F)F)cc3)cc2C(=O)N([C@@H](C)CO)C[C@@H]1C | i
C[C@@H]1CCCCO[C@@H](CN(C)Cc2ccc(C(F)(F)F)cc2)[C@@H](C)CN([C@H](C)CO)C(=O)c2cc(NC(=O)NC3CCCCC3)ccc2O1 | i

(more compounds)
SMILES | FGF22 binding
C[C@H](CO)N1C[C@H](C)[C@H](CN(C)C(=O)c2cccc(F)c2)Oc2cc(-c3cncnc3)ccc2S1(=O)=O | i
CO[C@@H]1CN(C)C(=O)c2cc(NC(=O)C3CC3)ccc2OC[C@@H](C)N(Cc2ccc(F)cc2)C[C@H]1C | i
O=C(Cc1cccnc1)N[C@H]1CC[C@H](CCn2cc(Cc3ccccc3)nn2)O[C@H]1CO | i
C[C@H]1CN([C@@H](C)CO)C(=O)Cc2cc(NC(=O)CCC(F)(F)F)ccc2O[C@@H]1CN(C)C(=O)Nc1ccc(F)cc1 | i
O=C(C[C@H]1CC[C@@H]2[C@H](COC[C@H](O)CN2S(=O)(=O)c2ccccc2)O1)NCC1CCCCC1 | i
CC(C)C#Cc1ccc2c(c1)O[C@H](CN(C)C)[C@@H](C)CN([C@H](C)CO)S2(=O)=O | i
COc1ccc(S(=O)(=O)N[C@@H]2C=C[C@H](CC(=O)O)O[C@H]2CO)cc1 | i
COc1ccc2c3c(n(C)c2c1)[C@@H](CO)N(C(=O)C1CCCC1)CC31CCN(C(=O)CC2CC2)CC1 | i
C[C@@H]1CN([C@H](C)CO)C(=O)CCCn2cc(nn2)CO[C@H]1CN(C)Cc1cccnc1 | i
COc1ccccc1CN1C[C@H](C)[C@@H](OC)CN(C)C(=O)c2cc(NC(C)=O)ccc2OC[C@@H]1C | i
C[C@@H]1CN([C@@H](C)CO)C(=O)c2cc(NC(=O)Nc3ccc4c(c3)OCO4)ccc2O[C@@H]1CN(C)S(=O)(=O)c1ccccc1 | i
Cc1ccc(S(=O)(=O)Nc2ccc3c(c2)C(=O)N([C@@H](C)CO)C[C@@H](C)[C@@H](CN(C)S(=O)(=O)c2ccc(F)cc2)OCCCC[C@@H](C)O3)cc1 | i
Cc1noc(C)c1S(=O)(=O)Nc1cccc2c1O[C@H](CN(C)CC1CC1)[C@H](C)CN([C@@H](C)CO)C2=O | i
C[C@@H]1CN([C@@H](C)CO)C(=O)c2cccc(NC(=O)CCCCCC(=O)Nc3ccccc3N)c2O[C@@H]1CN(C)C(=O)Nc1ccc(C(F)(F)F)cc1 | i
COc1ccccc1-c1ccc2c(c1)O[C@H](CN(C)Cc1ccc3c(c1)OCO3)[C@H](C)CN([C@H](C)CO)S2(=O)=O | i
O=C(C[C@@H]1CC[C@@H]2[C@H](COC[C@@H](O)CN2Cc2ccccc2F)O1)N[C@@H]1CCN(Cc2ccccc2)C1 | i
C[C@@H]1CN([C@H](C)CO)C(=O)c2cc(C3=CCCCC3)cnc2O[C@H]1CN(C)Cc1ccc(C(=O)O)cc1 | i
COc1cccc(-c2cnc3c(c2)C(=O)N([C@@H](C)CO)C[C@H](C)[C@@H](CN(C)C(=O)CC2CC2)O3)c1 | i
CC(C)NC(=O)N(C)C[C@@H]1Oc2ccc(N(C)C)cc2CC(=O)N([C@@H](C)CO)C[C@H]1C | i
CO[C@H]1CC[C@H]2CCOc3c(C#N)cccc3C(=O)N(C)C[C@@H](c3ccccc3)CC(=O)N(C)C[C@@H]1O2 | i
C[C@@H]1CN([C@@H](C)CO)S(=O)(=O)c2ccc(C#C[C@@H](C)O)cc2O[C@@H]1CN(C)C(=O)C1CC1 | i
COCC(=O)N(C)C[C@@H]1Oc2cc(C#CC(C)C)ccc2S(=O)(=O)N([C@@H](C)CO)C[C@@H]1C | i
CCN1[C@@H]2c3ccc(C4=CCCC4)c(=O)n3C[C@@H]2[C@@H](CO)[C@@H]1C(=O)N(C)C | i
CCCNC(=O)N1CCC2(CC1)CN(Cc1ccc(F)cc1)[C@@H](CO)c1[nH]c3cc(OC)ccc3c12 | i
Cc1ccccc1NC(=O)Nc1ccc2c(c1)C(=O)N(C)[C@H]1CC[C@@H](CC(=O)O)O[C@@H]1CO2 | i
Cc1noc(C)c1NC(=O)Nc1ccc2c(c1)C(=O)N([C@@H](C)CO)C[C@H](C)[C@H](CN(C)S(=O)(=O)c1ccc(F)cc1)O2 | i
Cc1noc(C)c1NC(=O)Nc1ccc2c(c1)C(=O)N([C@H](C)CO)C[C@H](C)[C@@H](CN(C)Cc1ccc3c(c1)OCO3)O2 | i
C[C@H]1CN([C@@H](C)CO)C(=O)c2cccc(NS(=O)(=O)c3ccccc3)c2O[C@H]1CN(C)Cc1ccncc1 | i
C[C@H](CO)N1C[C@H](C)[C@@H](CN(C)C(=O)c2cccc(F)c2)Oc2ncc(-c3cccnc3)cc2C1=O | i
CN(C)C(=O)c1cccc(-c2ccc([C@H]3[C@@H](C#N)N(C(=O)C4CCCCC4)[C@H]3CO)cc2)c1 | i
CC(C)[C@H](C)NC(=O)N(C)C[C@@H]1OCc2ccccc2-c2c(n(C)c3ccccc23)C(=O)N([C@H](C)CO)C[C@@H]1C | i
COCC(=O)NC[C@@H]1[C@H](c2ccc(C3=CCCC3)cc2)[C@@H](CO)N1C(=O)C1CC1 | i
C[C@@H]1CN([C@@H](C)CO)C(=O)c2cc(NS(=O)(=O)c3ccc(F)cc3)ccc2O[C@@H]1CN(C)S(=O)(=O)c1cn(C)cn1 | i
COc1ccc(NC(=O)Nc2ccc3c(c2)CC(=O)N([C@@H](C)CO)C[C@@H](C)[C@@H](CN(C)S(=O)(=O)c2ccc(Cl)cc2)O3)cc1 | i
COc1ccc2c3c(n(C)c2c1)[C@@H](CO)N(Cc1ccncc1)CC31CCN(C(=O)C2CCCCC2)CC1 | i
C[C@@H]1CN([C@@H](C)CO)S(=O)(=O)c2ccc(C3=CCCC3)cc2O[C@@H]1CN(C)Cc1ccncc1 | i
CC(C)NC(=O)N(C)C[C@@H]1Oc2c(NS(=O)(=O)c3ccc(Cl)cc3)cccc2C(=O)N([C@H](C)CO)C[C@H]1C | i
CC(=O)N1CC[C@@H]2[C@H]1c1cc(-c3cccc(F)c3)ccc1N(C)[C@@H]2CO | i
CC(C)NC(=O)Nc1ccc2c(c1)C(=O)N([C@H](C)CO)C[C@H](C)[C@H](CN(C)S(=O)(=O)c1cn(C)cn1)O2 | i
C[C@@H]1CN([C@@H](C)CO)C(=O)c2cc(C#Cc3cccc(F)c3)cnc2O[C@H]1CN(C)Cc1ccccn1 | i
C[C@H](CO)N1C[C@H](C)[C@@H](CN(C)C(=O)Nc2ccccc2)Oc2ccc(NC(=O)Nc3cccc4ccccc34)cc2C1=O | i

Reprinted from the listing (3 entries):
SMILES | FGF22 binding
C[C@@H]1CN([C@@H](C)CO)S(=O)(=O)c2ccc(C#C[C@@H](C)O)cc2O[C@@H]1CN(C)C(=O)C1CC1 | i
COCC(=O)N(C)C[C@@H]1Oc2cc(C#CC(C)C)ccc2S(=O)(=O)N([C@@H](C)CO)C[C@@H]1C | i
CCN1[C@@H]2c3ccc(C4=CCCC4)c(=O)n3C[C@@H]2[C@@H](CO)[C@@H]1C(=O)N(C)C | i

4 compounds already listed, ordered by SMILES length, largest number first:
SMILES | FGF22 binding
CC(C)[C@H](C)NC(=O)N(C)C[C@@H]1OCc2ccccc2-c2c(n(C)c3ccccc23)C(=O)N([C@H](C)CO)C[C@@H]1C | i
C[C@@H]1CN([C@@H](C)CO)S(=O)(=O)c2ccc(C#C[C@@H](C)O)cc2O[C@@H]1CN(C)C(=O)C1CC1 | i
COCC(=O)N(C)C[C@@H]1Oc2cc(C#CC(C)C)ccc2S(=O)(=O)N([C@@H](C)CO)C[C@@H]1C | i
CC(=O)N1CC[C@@H]2[C@H]1c1cc(-c3cccc(F)c3)ccc1N(C)[C@@H]2CO | i

Some of the compounds tested; rates above refer to the full screens.
